# Screening results: PubChem, National Center for Advancing Translational Sciences (NCATS)
# D2 agonist: activates the human D2 dopamine receptor; activation, % (test concentration not listed); 360,000 compounds, 0.084% hits; DiscoveRx PathHunter D2 beta-arrestin, luminescence, 90 min; 100% = 57 uM dopamine signal; in the data active = activation above about 40%; inconclusive = about 15% to 40%; inactive = below about 15%; further: compound concentration not given in the record; the text of the record calls up to 30% inactive
#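 DiscoveRx PathHunter D2 beta-arrestin cells (2,100/well) attached overnight, then compound-stimulated 90 min at 37 C in HBSS/10 mM HEPES/0.1% Tween-20 buffer; beta-galactosidase complementation read by luminescence after 1 h at ambient temperature. Dopamine 57 uM final (EC100) as control.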
# TRPML1 inh: human mucolipin-1 channel inhibition; TRPML1-inducible cells, Ca2+ dye fluorescence, FDSS; stronger effect = lower value; inhibition of EC80 agonist-evoked calcium signal; Q9GZU1; activity change, negative = inhibition, % (concentration not given with the values); 390,000 compounds, 0.02% hits; in the data active means activity change below about -50%; inconclusive means about -30% to -50%; inactive means above about -30%;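 further: stimulus is agonist 54-4 at its EC80 concentration; on the % scale 0 is the no-effect control and ±100 the full control effect; the text of the record puts the active cut at -80%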
#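 TRPML1-DL cells, Tet-induced overnight (~16 h, 37 °C) at 1,500 cells/well, were loaded with Ca8 no-wash dye plus quencher for 45-90 min at room temperature. Compounds were pinned during FDSS kinetic reading; agonist 54-4 at EC80 (4 uM final) then added.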
# CtBP-E1A blk: blocks the CtBP interaction with E1A. AlphaScreen GST-E1A/His-CtBP binding, 1536-well; stronger effect = lower value; control for the full effect not named in the record. activity change, % (test concentration not listed). 340,000 compounds, 0.49% hits. AID 651724; in the data active means activity change below about -65%; inconclusive means about -30% to -65%; inactive means above about -30%; further: on the % scale 0 is the no-effect control and ±100 the full control effect
#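 Homogeneous bead-based format: GST-tagged E1A captured on glutathione donor beads, His-tagged CtBP on nickel acceptor beads; compounds precede bead addition by 2 h at 37 °C.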
# PINK1 expr mod: changes PINK1 expression; 410,000 compounds, 0.2% hits; PINK1 immunofluorescence, high-content cytometry, 24 h; Potency, µM (series often up to 76.6 µM), for the others: at the top dose activation (PINK1 increase), actives largely listed as activators; AID 624263; active = well fitted activation curve with a large enough effect; inconclusive = small, poorly fitted or top-dose-only effect; inactive = flat fitted curve, though single readings scatter; cell line not stated here;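 further: potency means the concentration at half of the fitted maximal effect; % of control where 0% means no effect; nearly all actives have a fitted effect of over 65% in size; a mitochondrial uncoupler was the plate control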
#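 PINK1 protein level read as immunofluorescence by microplate cytometer in a fixed, stained stable cell line after 24 h exposure to five compound concentrations, with CCCP as control.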
# Six1-Eya2 blk: Six1/Eya2 interaction inhibition; Q15475+O00167; AlphaScreen GST-Six1/His-Eya2 binding, biochemical; stronger effect = lower value; control for the full effect not named in the record; activity change, % (no concentration beside the values); 360,000 compounds, 0.56% hits; AID 651725; in the data active = activity change below about -65%; inconclusive = about -30% to -65%; inactive = above about -30%; further: on the % scale 0 is the no-effect control and ±100 the full control effect
# Target sequence (O00167 whole entry, looked up): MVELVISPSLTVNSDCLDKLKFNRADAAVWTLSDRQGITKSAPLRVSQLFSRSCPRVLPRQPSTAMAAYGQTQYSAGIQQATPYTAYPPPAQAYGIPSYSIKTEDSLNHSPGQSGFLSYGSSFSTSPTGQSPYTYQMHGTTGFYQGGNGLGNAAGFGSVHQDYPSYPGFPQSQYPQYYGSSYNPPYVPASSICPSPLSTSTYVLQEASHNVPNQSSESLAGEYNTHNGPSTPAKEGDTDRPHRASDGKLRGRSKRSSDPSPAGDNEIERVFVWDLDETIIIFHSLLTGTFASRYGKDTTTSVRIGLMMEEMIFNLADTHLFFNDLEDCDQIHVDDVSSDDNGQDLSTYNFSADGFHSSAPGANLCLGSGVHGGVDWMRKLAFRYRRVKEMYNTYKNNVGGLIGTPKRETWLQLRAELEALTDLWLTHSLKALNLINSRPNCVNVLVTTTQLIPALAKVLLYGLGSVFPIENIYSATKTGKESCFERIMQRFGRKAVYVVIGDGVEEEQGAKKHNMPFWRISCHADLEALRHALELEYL
# Target sequence (Q15475 whole entry, looked up): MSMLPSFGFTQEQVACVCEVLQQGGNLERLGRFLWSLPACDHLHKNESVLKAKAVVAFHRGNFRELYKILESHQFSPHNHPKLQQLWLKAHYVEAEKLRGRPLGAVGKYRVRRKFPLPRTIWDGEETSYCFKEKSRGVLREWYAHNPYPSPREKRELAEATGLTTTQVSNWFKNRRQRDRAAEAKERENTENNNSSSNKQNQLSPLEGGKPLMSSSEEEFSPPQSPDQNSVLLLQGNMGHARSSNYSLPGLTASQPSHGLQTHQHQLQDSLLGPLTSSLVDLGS
#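 AlphaScreen luminescence read after one hour at 37 °C in darkness. Pin-transferred compounds met GST-Six1 and His-Eya2 protein (5X stock 250 nM/500 nM) plus glutathione donor and Ni-chelate acceptor beads (5X, 50 ug/mL).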
# TRPML1 ag: activates the human TRPML1 channel | activation, % (concentration not given with the values) | TRPML1-expressing cells, Ca2+ dye fluorescence, FDSS; host cell line not named in the record; reference of the full effect not given here | 410,000 compounds, 0.12% hits | Q9GZU1 | AID 624414; in the data active = activation above about 50%; inconclusive = about 30% to 50%; inactive = below about 30%; further: 0% is about no effect; the text of the record puts the active cut at 80%
#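 Calcium fluorescence on an FDSS kinetic reader gave the read-out. Tet-induced TRPML1-DL cells were plated overnight, dye-loaded (Ca8 with quencher, 45-90 min, room temperature, dark), then read 110 s after compound addition, and again 110 s after 4uM final 54-4 (EC80).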
# Starred values were filed as active, the others as inactive; ? = inconclusive; . = not tested or not shown; & = joins results of further samples; [ ] = another dose, or the depositor's remark.
# Value order – D2 agonist	TRPML1 inh	CtBP-E1A blk	PINK1 expr mod	Six1-Eya2 blk	TRPML1 ag
- O=c1[nH]c2ccccc2nc1-c1ccc(Cl)cc1
→ -0.8	15.2	5.7	22.6%	-0.2	-0.1
- O=C(CSc1ccc(-c2ccccn2)nn1)Nc1nccs1
→ -1.7	-14.3	?	0.8%	?	0.6
- CC(=O)c1cccc(NC(=O)CCS(=O)(=O)c2cccc3nsnc23)c1
→ -6.2	-1.7	-8.4	-1.7%	0.2	4.7
- O=C(Cn1c(=O)oc2ccccc21)Nc1ccc(Br)cc1
→ 1.5	7.2	4.5	13.0%	7.5	-1.0
- C=CCn1c(CNS(=O)(=O)c2ccc(F)cc2)n[nH]c1=S
→ 13.7	-3.7	7.8	0.8%	9.5	0.2
- CCC(=O)Nc1cccc(-c2ccc(N3CCC(C)CC3)nn2)c1
→ -6.5	-13.2	.	2.8%	-1.7	0.3
- NS(=O)(=O)c1ccc(NS(=O)(=O)c2ccc(NC(=O)c3ccc(-c4ccccc4)cc3)cc2)cc1
→ -0.2	8.7	-6.4	25.0%	1.5	1.9
- CC(C)Sc1nc(O)c(Cc2ccccc2)c(=O)[nH]1
→ 2.1	-3.6	-5.1	-0.1%	1.6	0.0
- Cc1cc(C)cc(N(CC(=O)Nc2cccc(C)c2C)S(=O)(=O)c2c(C)[nH]c(=O)[nH]c2=O)c1
→ 0.8	29.7&0.0	.	0.5%&1.1%	3.0	0.5&0.0
- CC(NC(=O)CSC(=S)N(C)C)C12CC3CC(CC(C3)C1)C2 (stereo unspecified)
→ -0.6	7.2	5.9	7.5%	-4.5	0.7
- Cc1c(Cl)ccc(S(=O)(=O)Nc2cccnc2)c1Cl
→ 2.4	22.8	1.4	1.3%	4.1	-0.2
- COC(=O)C1=C(C(=O)OC)[C@@H]2N(C)c3ccc(OC)cc3[C@@]23C[C@@H](C(=O)OC)N(C(=O)C2CCC2)C3=N1
→ -2.3	-1.6	?	-0.1%	?	1.3
- CC[C@]12c3[nH]c4ccccc4c3CCN1C(=O)C(CC(=O)NCCCOC)C[C@@H]2C(=O)N1CCN(C(=O)C2CC2)CC1 (stereo partly specified)
→ -2.1	-1.6	1.0	-1.2%	0.6	-0.4
- COc1ccccc1Nc1ncnc2ccccc12
→ -1.1	4.5	6.4	0.5%	6.3	1.7
- O=S(=O)(NC1CCCCC1N1CCN(c2ccccc2F)CC1)c1ccc(Cl)cc1 (stereo unspecified)
→ -13.1	17.0	-3.3	0.4%	-7.7	-0.1
- CCc1cccc(NC(=O)CCc2nc3cccnc3n2-c2ccccc2)c1
→ .	18.9	.	4.7%	.	0.8
- COc1ccc(S(=O)(=O)NCC(c2cccs2)S(=O)(=O)c2ccccc2)cc1OC (stereo unspecified)
→ .	-19.1	.	0.8%	.	1.1
- CN(C)c1ccc(N=Nc2ccccc2C(=O)OCC(=O)N(C)c2ccccc2)cc1
→ 5.8	-7.9	-66.1*	0.7%	-67.3*	4.2
- COc1ccc(S(=O)(=O)N2CCCCC2)cc1NC(=O)c1cncc(Br)c1
→ 0.4	-9.0	7.5	10.7%	-0.6	3.4
- O=C(CSc1nc2c([nH]c3ccccc32)c(=O)n1-c1ccccc1)Nc1ccccc1F
→ .	-8.6	.	2.8%	.	0.3
- O=C(COC(=O)CC12CC3CC(CC(C3)C1)C2)Nc1ncc(Cl)cc1Cl
→ 0.2	24.2	7.2	-3.4%[38.3 µM]	2.1	1.1
- CCOC(=O)c1ccc2[nH]cc(C(C)=O)c(=O)c2c1
→ -0.1	-7.7	-10.8	4.8%[38.3 µM]	-8.4	1.1
- C=CCSc1nnc(-c2cc(C(C)(C)C)nn2Cc2ccc(F)cc2)n1C
→ -2.2	22.4	8.8	-0.7%	14.4	1.9
- O=C(CCSCCC(=O)NN=Cc1ccccc1O)NN=Cc1ccccc1O
→ 1.0	20.7	?	4.9%	-29.2	0.0
- Nn1nnc2ccccc21
→ -2.8	9.3	-19.5	-0.5%	4.9	0.5
- COc1ccc(OC)c(CNC(=O)c2cnc3c(C)cccn3c2=O)c1
→ .	32.2	.	3.6%	.	2.1
- CCOCCCNC(=S)N1CCN(CC)CC1
→ -4.7	-16.1	10.6	-1.1%	8.9	0.7
- O=C(CCc1nnc(C2CCCCC2)o1)N1CCN(C2CCCCC2)CC1
→ -5.0	2.9	4.8	0.7%	7.8	-0.2
- CCc1nc2ccc(C(=O)N(C)Cc3ccco3)cn2c1N(C)Cc1ccc(OC)cc1
→ -4.3	.	-7.8	1.5%	-8.3	-1.0
- Cc1cc(OCC(=O)N(C)c2c(N)n(Cc3ccccc3)c(=O)[nH]c2=O)c(C(C)C)cc1Cl
→ 2.5	-10.7	3.4	8.7%	4.2	0.1

# Continuation:
# Value order – D2 agonist	TRPML1 inh	CtBP-E1A blk	PINK1 expr mod	Six1-Eya2 blk	TRPML1 ag
- COc1ccc(CC(=O)NCCS(=O)(=O)N2CCN(c3ccc(F)cc3)CC2)cc1OC
→ 8.7	-6.5&26.4	7.0	1.7%&1.5%	4.8	-0.8&3.6
- COc1ccc(-c2csc(NC(=O)CN3C(=O)CCC3=O)n2)c(OC)c1
→ -1.8	-14.2	1.7	0.1%	18.6	-0.4
- CCN1CCN(c2ccc(S(=O)(=O)N3CCOCC3)cc2NC(=O)CCOc2ccccc2)CC1
→ -3.7	-7.7	5.2	-1.2%	-0.3	-0.4
- Cc1cc(-c2ccccc2)nc(-c2ccccc2)c1C
→ -2.9	26.8	15.1	13.5%	32.3	0.8
- Nc1nc(SCC(=O)N2N=C3/C(=C\c4ccco4)CCCC3C2c2ccco2)n[nH]1 (stereo unspecified)
→ 3.4	16.6	-3.4	1.4%	-14.1	-1.0
- Cc1cnc2cc([N+](=O)[O-])ccc2n1
→ 0.4	-24.0	10.8	0.2%	-9.7	0.1
- O=C(c1ccccc1)c1ccc2nc(Nc3ccccc3)c3nncn3c2c1
→ 0.3	.	5.5	10.1%	0.7	.
- O=C(c1ccco1)N1CCN(CCCCOc2ccc(F)cc2)CC1
→ ?	14.0	2.7	-0.3%	0.1	0.4
- CCOc1ccc(OCCOC(=O)CNC(=O)c2ccc(Cl)cc2Cl)cc1
→ -2.2	15.1	9.6	1.7%	4.7	0.4
- COc1ccccc1CCN1CCCC(CN(C)C(=O)CCC(N)=O)C1 (stereo unspecified)
→ -7.0	-19.6	-19.0	-0.6%	-1.2	0.0
- O=C(COc1ccc([N+](=O)[O-])cc1)Nc1ccc(S(=O)(=O)N2CCOCC2)cc1
→ 2.5	7.2	36.5	3.7%	-1.7	1.7
- Cc1ccc(NC(=O)N2CCCC(C(=O)O)C2)cc1 (stereo unspecified)
→ 2.3	3.3	10.0	2.7%	1.4	0.7
- Cn1c(SCC(=O)N2CCOCC2)nnc1-c1ccccc1
→ -0.1	?	1.6	6.9%[38.3 µM]	-2.4	0.6
- CN1CCN(CCCNC(=O)c2ccc(Cn3c(=S)[nH]c4ccc(Br)cc4c3=O)cc2)CC1
→ -4.0	-5.9	-1.4	0.2%	-6.0	0.0
- O=C1c2ccccc2C(=O)N1CCc1c[nH]c2ccc(O)cc12
→ 3.6	-11.2	13.5	0.5%	3.2	1.7
- Cn1c(N)c(C(=O)COC(=O)C2CCC(C(C)(C)C)CC2)c(=O)n(C)c1=O (stereo unspecified)
→ 1.2	-7.6	4.9	5.1%	-4.4	0.8
- Cc1cc(S(=O)(=O)N2CCCC2)ccc1OCC(=O)NCc1ccco1
→ 4.1	7.1	10.4	.	-4.3	-0.4
- C#CCOCCOCCOCCNc1nc(N2CCN(C(=O)[C@H](CC(N)=O)n3cc([C@@H](N)C(C)C)nn3)CC2)nc(N2CCN(C(=O)[C@H](CC(N)=O)n3cc([C@@H](N)C(C)C)nn3)CC2)n1
→ -0.7	22.3	-5.8	0.0%	-5.6	-0.2
- CC(=O)c1ccc(NC(=O)Nc2ccc(S(=O)(=O)N3CCCC3)cc2)cc1
→ 6.0	-2.5	-16.1	14.7%	-2.6	1.9
- Cc1nc(NC(C)C(=O)O)c2nc(C)oc2n1 (stereo unspecified)
→ -0.2	-5.1	-1.3	-2.2%	6.1	-1.0
- O=C(CCCn1nnnc1CN1CCOCC1)N1CCC(c2ccc(F)cc2)C1 (stereo unspecified)
→ 3.9	-0.4	17.2	-0.6%	-0.8	0.0
- CCOC(=O)C1=C(O)C(=O)N(c2ccc(S(N)(=O)=O)cc2)C1c1ccc(Br)cc1 (stereo unspecified)
→ -1.5	-3.0	-4.7	0.6%	1.4	0.0
- CCc1ccc(C2C(C(=O)O)c3ccccc3C(=O)N2C)cc1 (stereo unspecified)
→ 1.4	13.9	2.5	-1.2%[38.3 µM]	4.7	0.1
- CN1C/C(=N\S(=O)(=O)c2ccccc2)N(C)C1=O
→ 0.2	-28.1	8.2	2.2%	0.0	-0.1
- Cc1snc(S(=O)(=O)/C(C#N)=N\Nc2ccccc2)c1C#N
→ -7.7	-10.1	15.3	-1.3%	7.3	-0.9
- CCOC(=O)N1CCN(C(=O)CNS(=O)(=O)c2cccs2)CC1
→ 0.2	0.1	-1.8	-1.8%	4.7	0.9
- Cc1ccc(CN(CC(=O)NC(C)(C)C)C(=O)CNC(=O)c2cccs2)cc1
→ -0.6	-11.0	-5.7	-1.2%	-22.4	0.0
- Cc1ccc(CC(=O)Nc2cc(C)ccn2)cc1
→ -3.3	0.5	-13.5	-1.6%	-2.4	-0.2
- CC(=O)NC(CC(=O)NC(C)c1ccc(Cl)cc1Cl)c1ccccc1 (stereo unspecified)
→ -0.9	-10.1	-1.0	0.6%	-1.4	-0.3
- Cc1ccc(C)c(C(C)NC(=O)C2CCCO2)c1 (stereo unspecified)
→ 2.4	7.4	2.9	-1.3%	-0.3	0.5

# Nothing new here: an excerpt of the list.
# Value order – D2 agonist	TRPML1 inh	CtBP-E1A blk	PINK1 expr mod	Six1-Eya2 blk	TRPML1 ag
- CC(=O)NC(CC(=O)NC(C)c1ccc(Cl)cc1Cl)c1ccccc1 (stereo unspecified)
→ -0.9	-10.1	-1.0	0.6%	-1.4	-0.3
- Cc1ccc(C)c(C(C)NC(=O)C2CCCO2)c1 (stereo unspecified)
→ 2.4	7.4	2.9	-1.3%	-0.3	0.5

# Remaining list, next part:
# Value order – D2 agonist	TRPML1 inh	CtBP-E1A blk	PINK1 expr mod	Six1-Eya2 blk	TRPML1 ag
- CCOc1ccc(-c2cc(CCCC(=O)NCCCOC)no2)cc1
→ 0.1	0.3	4.6	?	1.2	-0.2
- Cc1ccc(-c2cc(C(=O)NCc3ccccn3)c3ccccc3n2)cc1
→ -2.9	10.6	-6.5	0.6%	-2.8	1.1
- CN(C)C1=NCCN1CCCC1CCCCC1
→ -1.8	35.0	5.8	0.2%	1.8	-0.8
- Cn1nnc2cc(C(=O)Nc3ccccc3F)ccc21
→ 3.5	-11.1	-5.4	3.1%	3.2	0.0
- CNCCCC1Sc2ccccc2Oc2ccccc21 (stereo unspecified)
→ -3.8	22.1	-0.5	1.5%	6.1	-0.6
- CC(=O)c1ccc(NS(=O)(=O)c2ccc3ccccc3c2)cc1
→ 3.1	-4.9	0.3	0.1%	5.2	1.7
- Fc1ccc(CO/N=C/C2=C(Cl)c3ccccc3CC2)cc1
→ -1.3	-14.2	49.4	29.0%	-16.9	0.0
